Source: PubChem BioAssay (National Center for Advancing Translational Sciences (NCATS))
TsaE inh = YjeE (TsaE) inhibition, E. coli; P0AF67; purified YjeE, fluorescence polarisation of a bound ADP probe; Potency, µM; 0.05% of 71,000 active; AID 605; active = well fitted falling curve; inconclusive = weaker or top-dose-only fall, or a rising curve; inactive = flat or poorly fitted curve;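 further: top concentration of the series not given in the record; excess ADP was the control for the full effect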
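Purified YjeE (10 uM) with BODIPY Texas Red-labeled ADP probe (2 uM); compounds pin-transferred, 15 min at room temperature. Binding inhibition read as decreased fluorescence polarization; ADP titration as control.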
PK Bst = alters activity of Bacillus stearothermophilus pyruvate kinase. partly purified Bacillus stearothermophilus pyruvate kinase, luminescence ATP production; ribose 5-phosphate activator present at AC10. 1.2% of 51,000 active. AID 361. Potency, µM; in the data active means potency below about 11 µM; inconclusive means mostly about 12 µM to 25 µM; inactive means weaker than that;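 the screen sought inhibitors and activators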;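 further: potency means the concentration at half of the fitted maximal effect; scaled between full activation by ribose 5 phosphate and full inhibition by luteolin; about four in five hits inhibit and the cells do not say which; series up to 57 µM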
Numbers without * were called inactive; i = inactive; ? = inconclusive; . = no result given. Only part of the results is shown; rates above refer to the full screens.

TsaE inh,PK Bst,smiles
i,>57,COCCN(CCOC)S(=O)(=O)c1ccc(C(=O)Nc2nc(-c3ccncc3)cs2)cc1
i,4.28*,N#Cc1nc(-c2ccc(OCc3ccccc3)cc2)oc1NCCCn1ccnc1
i,.,CCOc1cccc(OCCOCCN2CCCC2)c1
i,>57,COC(=O)C1CCN(C(=O)CSc2nnc(-c3ccncc3)o2)CC1
i,.,Cc1c(NC(=O)OCCSc2nc(N(C)C)nc(N(C)C)n2)sc(=S)n1C
i,.,CCS(=O)(=O)n1nc(-c2ccccc2)cc1N
i,>57,Cc1ccc(C)c(CN2C(=O)C3(OCCCO3)c3ccccc32)c1
i,.,CN(C)C=O
.,>11.4,N[C@@H](C(=O)N[C@@H]1C(=O)N2C(C(=O)O)=C(Cl)CS[C@H]12)c1ccccc1
.,>25.6,CC(=O)c1cc2c(=O)c3ccccc3oc2nc1C
.,>25.6,Cc1c(/C(O)=C2\C(=O)C(=O)N(CCCN(C)C)C2c2ccccc2)cnn1-c1ccccc1 (centres undefined)
i,>57,C=CCSC1=C(C#N)C(c2ccccc2)CC(=O)N1 (centres undefined)
i,.,COCCn1c(=O)c(-c2cn(C)c3ccccc23)nc2cnc(Oc3ccc(OC)cc3)nc21
i,.,Cc1c(C(=O)O)cnc2cc(-c3ccc(Cl)cc3)nn12
i,.,COc1ccccc1CCn1c(=O)c(C)nc2cncnc21
i,.,CSc1nnc(-c2ccco2)n1-c1ccccc1
i,>57,CC(C)Sc1nc2c(c(=O)n(C)c(=O)n2C)n1Cc1ccc(Cl)cc1
i,>57,CCCNS(=O)(=O)c1ccc2c(c1)CCCN2C(C)=O
i,>57,CCCCOC(=O)c1ccc(NC(=O)c2cnccn2)cc1
i,.,CCc1nc2c(cnn2-c2ccc(Cl)cc2)c(=O)n1-c1ccc2c(c1)OCCO2
i,>57,Cc1ccc(-c2csc3ncnc(Sc4nnc(CN5CCCCCC5=O)o4)c23)cc1
i,>57,Cc1ccc(C(C)C)c(OCC(O)CN2CC(C)OC(C)C2)c1 (centres undefined)
i,?,CC1(C)Cc2c(sc(NC(=O)c3ccco3)c2C#N)CO1
i,>57,CC1CCN(c2ccccc2N)CC1
i,>57,O=C(O)c1nc2ccccc2nc1C(=O)O
i,>57,Cc1cc(=O)n2nc(N3CCC(C(=O)NCCc4ccccc4)CC3)sc2n1
i,>57,CCN(Cc1ccccc1)C(=O)Cn1cnc2c1c(=O)n(C)c(=O)n2C
i,>57,CC1(C)C(c2ccccc2)=NC(c2ccc(F)cc2)N1O (centres undefined)
i,>57,COc1cc2c(cc1OC)CN(C(=O)c1ccccc1C(=O)O)CC2
i,i,Cn1c(NCCN2CCOCC2)nc2c1c(=O)n(Cc1cccc(Cl)c1)c(=O)n2C
i,>57,COc1cccc(C(c2nnnn2CS(=O)(=O)c2ccc(C)cc2)N2CCN(C)CC2)c1OC (centres undefined)
i,.,Clc1cccc(-c2nnc(-c3ccccc3)o2)c1
i,.,O=C(Nc1cccc(Br)c1)c1ccn[nH]1
i,>57,O=C(CCn1c(=O)[nH]c2ccccc2c1=O)NCCCN1CCN(c2cccc(Cl)c2)CC1
i,>57,Cc1ccc(NC(=O)C2CCN(S(=O)(=O)c3cnc[nH]3)CC2)nc1
i,>57,O=S(=O)(c1ccc2c(c1)OCCO2)N(Cc1ccc(F)cc1)Cc1nnc(-c2cccs2)o1
i,>57,O=C(Nc1ccc(Oc2ccc(NC(=O)c3ccco3)c(NC(=O)c3ccco3)c2)cc1)c1ccco1
i,>57,O=c1cc(N2CCc3ccccc3C2)[nH]c(=O)n1C1CCCCC1
i,>57,O=C(NC1CCCCC1)C1CCN(S(=O)(=O)N2CCCCCC2)CC1
i,>57,Cc1cc(C)n(C(=O)CCC2COc3ccccc3O2)n1 (centres undefined)
i,9.19*,Cc1cc(C(=O)Nc2cnn(Cc3ccc(Cl)cc3Cl)c2)no1
i,.,CCOC(=O)N1CCN(C(=O)c2ccc3c(SCC(=O)O)c4c(nc3c2)CCC4)CC1
i,.,Cc1ccc(S(=O)(=O)N2CCCC2C(=O)Nc2nc3ccccc3s2)cc1 (centres undefined)
i,.,COC(=O)c1ccc(OCC(=O)c2ccc(O)cc2O)cc1
i,>57,CC(C)C(NC(=O)c1ccccc1NC(=O)c1ccco1)C(=O)O (centres undefined)
i,>57,COc1cccc(NC(=O)CCP(C)(=O)O)c1
i,>57,CCc1nc2ccccc2n1Cc1ccc(OC)c(OC)c1
i,>57,COc1ccc(C)cc1NC(=O)CSc1nnc(-c2ccccn2)n1Cc1ccco1

Structures above containing a thiophene ring, fused or not, in the order listed:
TsaE inh,PK Bst,smiles
i,>57,Cc1ccc(-c2csc3ncnc(Sc4nnc(CN5CCCCCC5=O)o4)c23)cc1
i,?,CC1(C)Cc2c(sc(NC(=O)c3ccco3)c2C#N)CO1
i,>57,O=S(=O)(c1ccc2c(c1)OCCO2)N(Cc1ccc(F)cc1)Cc1nnc(-c2cccs2)o1

Other compounds.
TsaE inh,PK Bst,smiles
i,>57,CCOc1nc(NCCc2ccc(OC)c(OC)c2)nc(NC(C)(C)CO)n1
i,.,O=C(CSc1nnc(C2COc3ccccc3O2)o1)Nc1nccs1 (centres undefined)
i,.,COCCNc1nc(-c2ccccc2OC)nc2ccccc12
i,>57,CCOC(=O)NC(=O)CSc1ccccn1
i,>57,Cc1cc(NC(=O)CSc2nc(C(C)C)nc3sc4c(c23)CCCC4)no1
i,.,COc1ccc(OC)c2[nH]c(=O)c(CCNC(=O)C(C)C)cc12
i,.,COc1cccc(NC(=O)c2ocnc2C)c1
i,>57,O=C(CCc1nc2ccccc2[nH]1)Nc1ccc(F)cc1
i,>11.4,Cc1ccc2nsnc2c1S(=O)(=O)N1CCN(C(=O)C2CCCO2)CC1 (centres undefined)
i,>57,O=C(CCNc1ccc(Cl)c(C(F)(F)F)c1)c1ccco1
i,.,CC(C)(C)C1(C)OC(C(N)=O)C(C(N)=O)O1 (centres undefined)
i,>57,O=C(Cc1cccs1)N1CCC(c2nc3c(nnn3Cc3ccccc3Cl)c(=O)[nH]2)CC1
.,>25.6,c1ccc(-c2ccc(C(c3ccccc3)n3ccnc3)cc2)cc1 (centres undefined)
i,.,CN(C)c1nc(N)nc(-c2cccnc2)n1
i,>57,Cc1occc1-c1nnc(SCC(=O)N2CCN(c3ccccc3)CC2)n1C
i,.,CC1Cn2c(nnc2-c2ccc(F)cc2)S1 (centres undefined)
i,.,Cc1ccc(C(=O)NCCCCNC(=O)c2ccc(C)o2)o1
i,.,O=C(c1ccco1)N1CCC2(CCCN(Cc3ccccc3)C2)CC1
i,>57,C=CCn1c(=O)c2ccccc2n2c(SCC(=O)NCCc3ccccc3)nnc12
.,>25.6,CC(C)OC(=O)C(C#N)c1nc2ccccc2nc1N1CCN(Cc2ccc3c(c2)OCO3)CC1 (centres undefined)
i,>57,CC1(C)CC(=O)C2=C(C1)OC(N)=C(C#N)C2c1ccccc1OC(=O)N1CCOCC1 (centres undefined)
i,>57,Cc1ccc(C(O)c2nccn2C)o1 (centres undefined)
i,.,CC(C)C[C@@H](CC(=O)N[C@@H](CCC(=O)O)CC(=O)O)NC(=O)[C@@H]1CNCC[C@H]1NC(=O)C[C@@H](NC(=O)C[C@H](CO)NC(=O)[C@@H]1CNCC[C@H]1N)C(C)C
i,>57,O=C(O)CSCC(=O)Nc1cc(C(F)(F)F)ccc1Cl
i,.,Cc1nc(NCCO)c2nc(-c3ccccc3)n(CC3CCN(C)CC3)c2n1
i,.,COc1cccc(NC(=O)N2CCN(c3cccc(C)c3C)CC2)c1
.,0.783*,CSc1nc2[nH]c3c(c2c2nnnn12)CCCC3
i,>57,Cc1noc(C)c1S(=O)(=O)N(CC(=O)O)c1ccc2c(c1)OCO2
i,>57,CN(C)S(=O)(=O)c1cccc(C(=O)Nc2cccnc2)c1
.,>25.6,COc1ccc(/C=N/n2cncn2)cc1CSc1ccccn1
i,>57,COc1ccc(NCc2nnc(SCC(=O)N3CCCc4ccccc43)n2C)cc1
i,>57,O=C(CCSCCC(=O)NCCN1CCOCC1)NCCN1CCOCC1
i,.,COC(=O)c1ccc(C(NC(=O)OCc2ccccc2)/C(=C/[C@@H](C)C(=O)N(C)C)c2cccnc2)cc1 (some centres undefined)
i,.,CN(C)S(=O)(=O)N1CCc2ccccc2C1
i,>57,O=C(CSCCO)Nc1cccc(C(F)(F)F)c1
i,.,Oc1ccc(Cl)cc1Cc1cc(Cl)cc(Cc2cc(Cl)ccc2O)c1O
i,.,COc1ccc(C2C(C#N)=C(N)Oc3n[nH]c(C)c32)cc1CN1CCN(c2ccc(F)cc2)CC1 (centres undefined)
i,>57,COc1ccc(COCC(O)CN2CCOCC2)cc1OC (centres undefined)
i,>57,Cc1ccc(-c2nnn(CC(=O)Nc3ccc(S(=O)(=O)N4CCC(C)CC4)cc3)n2)cc1
i,>11.4,COc1cccc(-c2nnc(N(C)C(=O)C3CCOC3)s2)c1 (centres undefined)
i,>57,Cc1ccc(S(=O)(=O)N2CCCC2CO)cc1 (centres undefined)
i,>57,CC(=O)N1CCc2cc(S(=O)(=O)Nc3cccc(C(F)(F)F)c3)ccc21
i,>57,CCCCCCn1c(N2CCN(c3ccccc3)CC2)nc2c1c(=O)n(C)c(=O)n2C
i,>57,Cn1nnnc1SCC(=O)Nc1ccc(N2CCOCC2)cc1
i,.,O=C(Cn1ncc2c(=O)oc3ccccc3c21)N1CCC(N2CCCCC2)CC1
i,.,CCc1ccc2nc(NC3=NCN(CCN4CCOCC4)CN3)nc(C)c2c1
.,>25.6,CCOC(=O)c1ccc(NC(=O)Cn2nnc3ccccc32)cc1
i,>57,CCCCCOc1ccc(C(=O)NC(C(=O)O)C(C)C)cc1 (centres undefined)
i,>11.4,COc1ccc(-c2[nH]ncc2Oc2ccccc2OC)c(O)c1
i,.,COc1ccccc1CN1CC2(CCN(C(=O)c3cnccn3)CC2)C1
i,.,O=C(c1csnn1)N1CCC2(CC1)CN(c1cccc(-c3ccccc3)c1)C2
i,>57,CC1(C)CC(=O)C2=C(C1)OC(c1cccs1)C(C#N)=C2N (centres undefined)
i,>57,N#CCSc1nnc(-c2ccccc2O)n1CCc1ccccc1
i,.,S=C(S)NCCN1CCNCC1
i,.,Cc1nc(NCc2ccccc2)c2nc(-c3ccccc3)n(CCN3CCOCC3)c2n1
i,>11.4,Clc1ccc(Cl)c2sc(N3CCCC3)nc12
i,>57,Cc1ccc2cc(CN(CC3CCCO3)C(=O)NC3CCCCC3)c(=O)[nH]c2c1C (centres undefined)
i,.,O=C(O)c1ccccc1C(=O)O
i,>11.4,Cc1cc(C)c2c(=O)n(-c3ccccc3)[nH]c2n1
i,>57,CC1CCc2cc(F)ccc2N1C(=O)CN1C(=O)c2ccccc2C1=O (centres undefined)

Quoted at random: 6 entries already listed, in no set order.
TsaE inh,PK Bst,smiles
i,>57,N#CCSc1nnc(-c2ccccc2O)n1CCc1ccccc1
i,.,Cc1nc(NCc2ccccc2)c2nc(-c3ccccc3)n(CCN3CCOCC3)c2n1
i,.,O=C(O)c1ccccc1C(=O)O
i,>57,Cc1ccc2cc(CN(CC3CCCO3)C(=O)NC3CCCCC3)c(=O)[nH]c2c1C (centres undefined)
i,.,O=C(c1csnn1)N1CCC2(CC1)CN(c1cccc(-c3ccccc3)c1)C2
i,>11.4,Clc1ccc(Cl)c2sc(N3CCCC3)nc12

The list goes on.
TsaE inh,PK Bst,smiles
i,>57,CC(C)(C)c1cc(CNC2CS(=O)(=O)C[C@@H]2O)cc(C(C)(C)C)c1O (some centres undefined)
i,?,COC(=O)c1ccc2c(c1)NC(=O)C(N1CCCCC1)S2 (centres undefined)
i,>57,CCCC(c1nnnn1C1CCCCC1)N1CCN(c2ncccn2)CC1 (centres undefined)
i,.,O=C(CSc1ccc(Cl)cc1)NC1CCCC1
i,>57,Cc1ccc2c(c1)N(CC(=O)N1CCN(c3nc4ccccc4s3)CC1)C(=O)C(C)O2 (centres undefined)
i,.,CCc1nc2cc(Cl)c(Cl)cc2[nH]1
i,>57,CCOc1ccc(NC(=O)CN2CCN(CC(=O)Nc3ccc4c(c3)OCO4)CC2)cc1
i,.,CCCOC(=O)Nc1ccc(C(N)=O)cc1
i,>57,CC(C)NC(=O)c1ccc2c(=O)n(C3CCCC3)c(=S)[nH]c2c1
i,>57,O=C(C1CCCN(S(=O)(=O)c2ccccc2)C1)N1CCCc2ccccc21 (centres undefined)
i,>57,O=C1c2[nH]nc(-c3ccccc3O)c2C(c2ccccc2)N1Cc1ccco1 (centres undefined)
i,>57,CC(C)(C)c1nnc2sc(SCC(=O)N3CCCc4ccccc43)nn2c1=O
i,.,CCOc1ccc(C2CC(c3cccc(OC)c3)n3nc(N)nc3N2)cc1 (centres undefined)
i,>57,N#CC1=C(O)CCCn2c1nc1ccccc1c2=O
i,.,Clc1ccccc1OCCCCN1CCCC1
.,>25.6,CCOC(=O)CSc1nc(N)c2c3c(sc2n1)CCCC3
i,.,CCCCc1cc2ccccc2c(OCCN(C)C)n1
i,>57,CCCCn1c(N)c(Sc2ccc(C)cc2)c(=O)[nH]c1=O
i,.,CC(C)NC(=O)CSCc1ccccc1Cl
i,.,Cc1nc(-c2ccccc2)c(Cc2ccccc2O)c(=O)[nH]1
i,>57,NC(Cc1ccc2nonc2c1)C(=O)O (centres undefined)
i,>57,COc1cc(C)ccc1NC(=O)c1ccc(S(=O)(=O)N2CCOCC2)cc1
i,>57,COc1ccc2[nH]c(=S)[nH]c2c1
